PABP polyA inh – PABP poly(A) RNA binding inhibitors, primary screen, biochemical, fluorescence polarization, uHTS | Polyadenylate-binding protein 1 (Homo sapiens), P11940 | inhibition, % at 35 µM | hit rate 1% among 290,000 | AID 2014, 2009;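 active = 50% or more with normal probe brightness, or confirmed in later tests; about a fifth of its hits are not listed in these tables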;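 also: calls also rest on retests at 20 µM and on dose response follow-up; controls were probe without protein and protein plus probe with vehicle; some compounds called inactive have numbers as strong as hits; many hits fall short of the cut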
eIF4H inh – human eIF4H binding inhibitors, primary screen, translation initiation inhibitor project, biochemical, uHTS, fluorescence polarization | hit rate 0.94% among 290,000 | inhibition, % at 35 µM | Eukaryotic translation initiation factor 4H (Homo sapiens), Q15056 | AID 2012, 2009 | eIF4H fluorescence polarization binding assay;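 active = 50% or more with normal probe brightness, or confirmed in later tests; about a fifth of its hits are not listed in these tables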;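 also: calls also rest on retests at 20 µM and on dose response follow-up; 0% = protein and probe with vehicle and 100% = probe without protein; strong numbers were not always called active; many hits fall short of the cut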
UUG fidelity – modulators of yeast start codon fidelity, primary screen, whole organism, S. cerevisiae, single point, plate reader; S. cerevisiae UUG-firefly luciferase reporter, luminescence/redox ratio; activity score, % at 18.7 µM; hit rate 0.13% among 350,000; AID 602363, 2012;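 active = replicate mean at a twofold rise or more, about +100% in these data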;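 also: firefly luciferase made from a UUG start codon reports start codon fidelity; reporter light over untreated wells divided by growth signal over untreated wells; some hits fall short of that in this replicate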
Env fusion inh – inhibitors of HIV-1 Env-driven cell-cell fusion, primary screen, HeLa-JRFL effector, CEM21 target cells, luciferase; inhibition, % at 12.3 µM; hit rate 1.1% among 360,000; AID 651610, 2012;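 active = mean replicate inhibition score of at least 50 and every replicate individually at or above 50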;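 also: 0% = plate neutral controls and 100% = maraviroc near 300 nM; one replicate is shown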
CSC inhib – cancer stem cell viability inhibitors, primary screen, luminescence | inhibition, % at 7.5 µM | hit rate 1.1% among 300,000 | cancer stem cell-like cells viability;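 active = mean at 75% or more and at least half the replicates too; tested in HMLE shEcad cells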;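 also: 0% = median of negative and 100% = median of positive control wells; the first replicate is given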
Rce1 inh – yeast Rce1p protease inhibitors, primary screen, biochemical, fluorescence, cell-free homogeneous; CAAX prenyl protease 2 (Saccharomyces cerevisiae (strain ATCC 204508 / S288c)), Q03530; yeast membranes, quenched prenylated peptide cleavage fluorescence; calls only; hit rate 0.27% among 290,000; AID 2563, 2010;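 active = fall in fluorescence gain of 50% or more versus controls, with final raw signal at or below 3038400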;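 also: plate controls were neutral control wells for no effect and wells lacking membranes for full effect; tested at 10 µM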
Target sequence (Q03530 whole entry, looked up): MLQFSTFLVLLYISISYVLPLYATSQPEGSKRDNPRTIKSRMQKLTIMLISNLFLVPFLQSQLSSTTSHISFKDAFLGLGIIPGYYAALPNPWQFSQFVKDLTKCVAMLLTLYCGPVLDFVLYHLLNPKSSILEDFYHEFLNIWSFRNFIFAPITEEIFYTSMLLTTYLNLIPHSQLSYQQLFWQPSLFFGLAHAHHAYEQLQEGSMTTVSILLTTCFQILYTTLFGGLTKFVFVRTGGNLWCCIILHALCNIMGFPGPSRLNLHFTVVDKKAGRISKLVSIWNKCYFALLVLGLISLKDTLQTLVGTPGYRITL
MT1-MMP act inh – blockers of MT1-MMP proenzyme processing, primary screen, HT1080 RFP-PRO-GFP cells, GFP/RFP fluorescence | GFP/RFP ratio fluorescence, overnight; percent of plate control window, DMSO zero | AID 651647, 2012 | hit rate 0.061% among 360,000 | Matrix metalloproteinase-14 (Homo sapiens), P50281 | GFP/RFP ratio change, % at 20 µM;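 active = GFP/RFP ratio change of at least 30% with cell ATP level not reduced by more than half and red fluorescence within 50% of control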; also: strong numbers were not always called active
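Material – HT1080 RFP-PRO-GFP cells · Control set – DMSO wells and RFP-L50D-GFP cells · Incubation – overnight cell settling, then overnight compound exposure, 37 °C, 5% CO2 · Compound dosing – single-point 20 µM compound, 1% DMSO · Read-out – GFP/RFP fluorescence ratio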
eIF4H inh retest – further read-out of eIF4H inh, marked with its call; inhibition, %; compound at 20 µM; confirmation average;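 mean of two retest wells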
PABP polyA inh retest – recorded beside PABP polyA inh, whose call it bears; inhibition, %; compound at 20 µM; confirmation repeats;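 mean of two retest wells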
MT1-MMP act inh RFP – recorded beside MT1-MMP act inh, whose call it bears; RFP signal change, %; measured here: RFP expression control read;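 0 = vehicle wells; hits needed this value within 50% of zero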
Starred values were filed as active, the others as inactive; i = inactive; nt = no result given; & = joins results of further samples; [ ] = remark or other dose.

SMILES	PABP polyA inh	eIF4H inh	UUG fidelity	Env fusion inh	CSC inhib	Rce1 inh	MT1-MMP act inh	MT1-MMP act inh RFP	others
O=C(Oc1ccc(Br)cc1)C1CCN(C2=NS(=O)(=O)c3ccccc32)CC1	nt	nt	-13	22	nt	nt	2	3
CCC(C)[C@H]1COCCS(=O)(=O)N1Cc1ccc(Cl)cc1Cl (stereo not given in full)	8	5	-4	-1	6	i	0	0
O=C(COC(=O)CCC(=O)c1cccs1)Nc1ccccc1C(F)(F)F	nt	nt	-6	nt	6	nt	-2	3
COc1cc2c(cc1OC)CN(C(=S)Nc1ccc(C)cc1C)CC2	-14	-5	nt	28	22	i	2	0
O=C(/C=C/c1cccc(Br)c1)NC1CCN(Cc2ccccc2)CC1	1	7	9	-15	7	i	1	2
COc1ccc(CCNC(=O)c2ccc(OCc3c(C)noc3C)c(OC)c2)cc1	nt	nt	-10	7	1	nt	4	1
N#CCCn1nnc2ccccc21	1	-3	nt	-33	-4	i	-2	-4
COc1cc2c(cc1NC(=O)CSc1nc3ccccc3[nH]1)oc1ccccc12	3	-2	-23	-2	80*	i	-8	-8
Cc1nc2ccc(NC(=O)c3ccc4ccccc4n3)cc2s1	16	3	nt	-33	-9	i	0	2
O=C(N/C(=C/c1cccc(Br)c1)c1nc(=S)[nH][nH]1)c1ccccc1	-4	-4	-39	-135	31	i	-8	-6
CC(C)CC(=O)NC(=S)Nc1cccc(NC(=O)c2ccccc2)c1	12	4	-14	21	6	i	-1	-2
CC(=O)c1c(C)[nH]c(C(=O)OCc2ccc([N+](=O)[O-])cc2)c1C	4	-16	-12	2	7	i	0	-15
Cc1ccc(OCC(=O)NNC(=O)c2cc(C)[nH]n2)cc1	1	-3	nt	nt	-7	i	-1	0
CC(=O)c1ccc(N2CCN(CC(=O)Nc3ccccc3N3CCOCC3)CC2)cc1	2	-4	-21	12	-17	i	1	-5
Cc1cc2c(C)cc(=O)oc2c2c1NCCC2	-3	0	-12	nt	3	i	-6	0
O=C(O)CN1C(=O)/C(=C\c2cc([N+](=O)[O-])ccc2OCc2ccccc2Cl)SC1=S	71*	45*	-7	-3	2	i	-3	4	eIF4H inh retest=78*;PABP polyA inh retest=88*
CCOc1ccc(Oc2ccc(NS(=O)(=O)c3cc(C(=O)O)ccc3Cl)cc2)cc1	nt	nt	-6	nt	10	nt	-3	-4
Cc1nn(CCC(=O)N2CCN(S(=O)(=O)c3ccccc3)CC2)c(C)c1C	6	8	-15	0	9	nt	4	4
COc1ccccc1NS(=O)(=O)c1cc(N/C(=N\S(=O)(=O)c2ccccc2)c2ccc(F)cc2)ccc1Cl	-13	-4	-13	-26	7	i	10	-6
CC(=O)C[C@H](O)CC(=O)[C@H]1OC(=O)[C@@H](C)CCCCc2ccccc21	nt	nt	9	-21	nt	nt	1	5
COCCCNc1nc(N)c([N+](=O)[O-])c(NCc2ccccc2)n1	3	-8	-4	-12	-6	i	-6	-6
CCO[C@H]1OC(C(=O)N2CCN(Cc3ccc4c(c3)OCO4)CC2)=C[C@@H](c2ccc3c(c2)OCO3)[C@@H]1CCCO	-6	7	-16&3	2[16.7 µM]	3	i	1	-4
Cc1c(/C=C2\SC(=Nc3cccc(C(=O)O)c3)NC2=O)c2ccccc2n1C	64*	0	nt	-4	0	i	-19	2	eIF4H inh retest=1;PABP polyA inh retest=77*
O=C(COC(=O)CSc1cccc2cccc(Cl)c12)Nc1ncc(C(F)(F)F)cc1Cl	-5	24	nt	nt	-3	i	-3	5
Cn1ncc(Br)c1C(=O)Nc1cccc(C(F)(F)F)c1	12	11	-10	-4	4	i	-6	-5
CCN(CC)c1cc(C)c2ccccc2n1	76	-7	-21	-19	-19	i	-4	0	eIF4H inh retest=1;PABP polyA inh retest=9
CCN(CCNC(=O)Cn1c(=O)sc2ccccc21)c1ccccc1	9	1	-11	-41	0	i	6	-1
COc1ccc(-c2oc(=O)n(C)c2-c2ccc(OC)cc2)cc1	8	-4	nt	9	-1	i	5	1
COc1ccc(C(=O)NC(=S)NNC(=O)[C@H]2C[C@@H]2c2ccccc2)cc1OC	2	29	nt	1	29	i	-1	-3
CC1Cc2ccccc2N1C(=O)CSc1nnc2c(n1)[nH]c1ccccc12 (stereo not given)	7	40	-20	nt	6	i	-5	-17
Cc1ccc(C(CNS(=O)(=O)c2ccc(Cl)cc2)N2CCN(C)CC2)cc1 (stereo not given)	nt	nt	-7	-4	nt	i	-12	-4
Cc1cccc(CSCCNC(=O)c2ccc(CN3CCOCC3)cc2)c1	1	-7	nt	26	7	i	-3	-4
COc1ccc(NC(=O)c2c(C)oc3c2CCCC3)cc1	2	8	-12	nt	5	i	-2	-2
Cc1ccccc1C(=O)O/N=C(\c1ccccc1)c1ccccn1	-7	3	nt	nt	1	i	2	-2
Cc1cccc(N(CC(=O)NC2CCCC2)C(=O)CS(=O)CC(=O)Nc2ccc3c(c2)OCO3)c1C (stereo not given)	0	2	-7	-135	-8	nt	2	4
COc1ccc(CNC(=O)CN(c2cc(C)cc(C)c2)S(=O)(=O)c2c(C)[nH]c(=O)[nH]c2=O)cc1	8	3	nt	5	-23	i	-1	1
CCOc1ccc(N2C(=O)Nc3ccccc3C2(O)C(=O)NCc2ccc(OC)cc2)cc1 (stereo not given)	-5	-8	nt	1	-17	nt	-3	-4
O=C(c1ccc(F)cc1)N1CCN(Cc2ccccc2)CC1	-6	-4	-2	7	-3	i	-1	-2
CCN(CC(=O)Nc1ccc(OC)cc1)CC(=O)Nc1ccc(Cl)cc1F	14	0	nt	-3	8	i	4	-2
NC(c1csc(Nc2ccc(C(=O)NCCCO)cn2)n1)C1CCCCC1 (stereo not given)	nt	nt	-26	18	nt	nt	-3	-4
CC1CC(=O)Nc2ccccc2N1C(=O)COc1ccc2ccccc2c1 (stereo not given)	nt	nt	-1	27	-24	nt	3	4
O=C(NCc1ccc2c(c1)OCO2)C(=O)NCC(c1ccco1)N1CCN(c2ccccc2)CC1 (stereo not given)	-4	-4	nt	15	17	i	-2	-18
COC(=O)c1[nH]c2cc(OC)c(OC)cc2c1/C=N/Nc1ccccc1	21	9	nt	-15	53	i	6	0
CCCCn1c(Nc2ccccc2)nc2ccccc21	0	-5	-15	1	-10	i	-5	-3
O=C(CNc1cccc(Br)c1)Nc1ccc(S(=O)(=O)N2CCCCC2)cc1	nt	nt	-4	-4	nt	nt	3	-3
COc1ccc(-c2c(C)nc3c(-c4ccsc4)cnn3c2N)cc1	-2	0	-17	-178	8	i	-5	-6
Cn1c(=O)c2c(-c3ccc(OC(F)F)cc3)cc(-c3ccccc3)nc2n(C)c1=O	-5	-2	nt	nt	-11	i	nt	nt
CCCNC(=O)NC(=O)CSc1nc2ccccc2n1CC(C)C	-5	0	-5	nt	-13	i	-4	-5
Cc1cc(CSc2ccccc2)ccc1NC(=O)COc1ccccc1C	4	17	-12	3	29	i	2	4
C=CCSc1nc(N)c(NC(=O)c2ccco2)c(=O)[nH]1	nt	nt	-7	nt	-2	nt	0	5
COC(=O)C1=C(C)N(c2ccc(C)cc2)/C(=C/c2ccc(O)cc2)C1=O	1	5	nt	-5	10	i	-18	-12
Cc1ccccc1NS(=O)(=O)c1nnc(NC(=O)C(C)C)s1	-7	-2	-11	3	11	i	1	5
Cc1ccc2nc(N3CCN(c4cccc(C)c4C)CC3)c3nnnn3c2c1	2	46	nt	-21	17	i	-8	-2
CC1(C)NC(C)(C)C(O)(C(N)=O)C1=O (stereo not given)	-4	5	-5	14	6	i	-1	0
Clc1ccc(-n2nnnc2Sc2ncnc3sccc23)cc1	nt	nt	-13	nt	-15	i	-5	0
CCN(CC)C(=O)C1CCN(S(=O)(=O)c2c(C)noc2/C=C/c2cccc(C)c2)CC1	-2	7	-5	-19	-4	i	-2	-11
CCc1ccc(OCC(=O)Nc2cccc3nsnc23)cc1	-8	-6	nt	17	-5	i	-1	6
COc1ccc(CCNC(=O)c2ccc(CN3CCOCC3)cc2)cc1	-13	-4	-4	1	-9	i	-3	-1
Cc1ccc(NS(=O)(=O)c2ccc(C(=O)N3CCN(c4ccccn4)CC3)cc2)cc1	6	0	4	nt	2	i	-4	-21
O=[N+]([O-])c1ccc(S(=O)(=O)N2CCN=C2SCc2ccc(F)cc2)cc1	-7	-10	5	nt	-2	i	2	0

(cont.)
SMILES	PABP polyA inh	eIF4H inh	UUG fidelity	Env fusion inh	CSC inhib	Rce1 inh	MT1-MMP act inh	MT1-MMP act inh RFP	others
O=C(NN=C1CCCC1)c1ccccc1OCCOc1ccccc1	22	0	nt	12	-6	i	5	-5
COc1ccc(OC)c(/C=N/NC(=O)c2cc3c(OC)cc(OC)cc3[nH]2)c1	8	-12	nt	11	32	i	-3	-8
COc1c2ccoc2c(OC[C@@H](OC(C)=O)C(C)(C)O)c2oc(=O)ccc12	nt	nt	-19	11	-4	nt	-2	-2
C1=C(CCNc2ncnc3c2cnn3-c2ccccc2)CCCC1	-6	-3	-15	nt	-6	i	2	-2
CCc1nnc(NC(=O)CCC(=O)Nc2ccc(C)cc2)s1	-10	-3	-17	6	-10	i	-1	7
Cc1nnc(SCC(=O)Nc2ccccc2F)n(N)c1=O	6	-2	5	4	4	i	-3	4
COc1cccc(C(=O)N/N=C2/SCC(=O)N2CCc2ccc(OC)c(OC)c2)c1	-1	-19	-14	6	-10	i	4	-1
COc1ccc(CNC(=O)C2CCCN(S(=O)(=O)c3c(C)n[nH]c3C)C2)cc1 (stereo not given)	-6	-8	-13	nt	-8	i	-5	-2
CC(=O)Nc1c(C)nn(-c2ccc(C)c(C)c2)c1C	-7	-5	-13	7	-12	i	7	1
CCOC(=O)c1[nH]c(C)c(C(=O)NCCCN2CCOCC2)c1C	2	3	-25	-12	-4	i	2	2
Cc1cccc(OCCOC(=O)C2CCN(S(=O)(=O)c3ccc(C)c(C)c3)CC2)c1	7	11	-7	-431	-5	i	-2	2
Cc1ccc(S(=O)(=O)NCCCN2CCOCC2)cc1C	-2	-3	-4	-4	-6	i	0	1
CCOC(=O)c1nnn(CC(=O)Nc2cccc(Cl)c2C)c1C(=O)OCC	-9	-5	4	-30	-13	i	5	5
O=C(Nc1ccnn1C1CCN(Cc2ccc3nonc3c2)CC1)c1cccc(F)c1	6	-3	-7	11	1	i	-1	-14
CSc1ccccc1NC(=O)CCn1c(=O)sc2ccccc21	-3	-3	nt	-80	-21	i	4	-1
CCOc1cc(C)c(S(=O)(=O)Nc2ccc3cn[nH]c3c2)cc1C	-1	-6	-12	nt	-11	nt	0	-19
CCCN(CC(=O)Nc1ccccc1C)C(=O)C1CCN(S(=O)(=O)c2ccc3c(c2)OCCO3)CC1	nt	nt	-17	9	nt	nt	4	6
Cc1cccc(C(=O)NCC(=O)OCCOc2ccccc2Cl)c1	nt	nt	5	-12	2	i	5	1

Two entries picked at random from those above:
SMILES	PABP polyA inh	eIF4H inh	UUG fidelity	Env fusion inh	CSC inhib	Rce1 inh	MT1-MMP act inh	MT1-MMP act inh RFP	others
O=C(NN=C1CCCC1)c1ccccc1OCCOc1ccccc1	22	0	nt	12	-6	i	5	-5
COCCCNc1nc(N)c([N+](=O)[O-])c(NCc2ccccc2)n1	3	-8	-4	-12	-6	i	-6	-6

Screens as filed in PubChem BioAssay.
